From PubChem BioAssay
TRPML1 inh: qHTS for Inhibitors of the Human Mucolipin Transient Receptor Potential 1 (TRPML1) | Mucolipin-1 (Homo sapiens), Q9GZU1 | TRPML1-inducible cells, Ca2+ dye fluorescence, FDSS; hits give low values; inhibition of EC80 agonist-evoked calcium signal | activity change, negative = inhibition, % (concentration not given with the values) | hit rate 0.02% among 390,000 | AID 624415, 2012; in the data active means activity change below about -50%; inconclusive means about -30% to -50%; inactive means above about -30%;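 also: stimulus is agonist 54-4 at its EC80 concentration; % is scaled to controls: 0 for no effect and ±100 for the full control effect; compound concentration not given in the record; the text of the record puts the active cut at -80%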
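Calcium fluorescence in TRPML1-DL cells induced overnight with Tet: a 110 s read after compound pin addition, then a 110 s antagonist read after challenge with 54-4 at 4 uM final (EC80).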
TRPML1 agonist: qHTS for Agonists of the Human Mucolipin Transient Receptor Potential 1 (TRPML1); Mucolipin-1 (Homo sapiens), Q9GZU1; TRPML1-expressing cells, Ca2+ dye fluorescence, FDSS; host cell line not named in the record; reference of the full effect not given here; activation, % (test concentration not listed); hit rate 0.12% among 410,000; AID 624414, 2012; in the data active = activation above about 50%; inconclusive = about 30% to 50%; inactive = below about 30%; also: 0% is about no effect; the text of the record puts the active cut at 80%
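In this qHTS format, compounds were pin-transferred onto Ca8-dye-loaded TRPML1-DL cells induced with Tet overnight, and intracellular Ca2+ fluorescence was recorded kinetically for 110 s after a 10 s baseline. A subsequent 4uM final 54-4 (EC80) addition followed by a second 110 s read served as the antagonist phase.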
Six1-Eya2 inh: qHTS Assay for Inhibitors of the Six1/Eya2 Interaction. hit rate 0.56% among 360,000. Homeobox protein SIX1 (Homo sapiens) + Protein phosphatase EYA2 (Homo sapiens), …. activity change, % (test concentration not listed). AlphaScreen GST-Six1/His-Eya2 binding, biochemical; hits give low values; control for the full effect not named in the record; in the data active = activity change below about -65%; inconclusive = about -30% to -65%; inactive = above about -30%; also: % is scaled to controls: 0 for no effect and ±100 for the full control effect; compound concentration not given in the record
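AlphaScreen luminescence read after one hour at 37 °C in darkness. Pin-transferred compounds met GST-Six1 and His-Eya2 protein (5X stock 250 nM/500 nM) plus glutathione donor and Ni-chelate acceptor beads (5X, 50 ug/mL).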
CtBP-E1A inh: qHTS Assay for Inhibitors of the CtBP/E1A Interaction. AID 651724, 2012. activity change, % (no concentration beside the values). hit rate 0.49% among 340,000. AlphaScreen GST-E1A/His-CtBP binding, 1536-well; hits give low values; control for the full effect not named in the record; in the data active means activity change below about -65%; inconclusive means about -30% to -65%; inactive means above about -30%; also: % is scaled to controls: 0 for no effect and ±100 for the full control effect; compound concentration not given in the record
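GST-E1A and His-tagged CtBP (125 nM each as 5X stock) were preincubated with pin-transferred compound for 2 h at 37 °C in the dark, then glutathione donor and nickel acceptor beads were added for 1 h before AlphaScreen reading.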
TRPV1 potentiator: HTS Assay for Compounds that Act as Potentiators of the Vanilloid Receptor 1; Transient receptor potential cation channel subfamily V member 1 (Homo sapiens), Q8NER1; potentiation, % at 8.33 µM; TRPV1-expressing cells, Fluo-8 calcium influx, capsaicin EC20 potentiation; host cell line not named in the record; control for the full effect not named in the record; hit rate 0.02% among 320,000; AID 540277, 2011; active means potentiation above 80%; inconclusive means 30% to 80%; inactive means below 30%; also: 0% is about no effect
Target sequence (Q8NER1 whole entry, looked up): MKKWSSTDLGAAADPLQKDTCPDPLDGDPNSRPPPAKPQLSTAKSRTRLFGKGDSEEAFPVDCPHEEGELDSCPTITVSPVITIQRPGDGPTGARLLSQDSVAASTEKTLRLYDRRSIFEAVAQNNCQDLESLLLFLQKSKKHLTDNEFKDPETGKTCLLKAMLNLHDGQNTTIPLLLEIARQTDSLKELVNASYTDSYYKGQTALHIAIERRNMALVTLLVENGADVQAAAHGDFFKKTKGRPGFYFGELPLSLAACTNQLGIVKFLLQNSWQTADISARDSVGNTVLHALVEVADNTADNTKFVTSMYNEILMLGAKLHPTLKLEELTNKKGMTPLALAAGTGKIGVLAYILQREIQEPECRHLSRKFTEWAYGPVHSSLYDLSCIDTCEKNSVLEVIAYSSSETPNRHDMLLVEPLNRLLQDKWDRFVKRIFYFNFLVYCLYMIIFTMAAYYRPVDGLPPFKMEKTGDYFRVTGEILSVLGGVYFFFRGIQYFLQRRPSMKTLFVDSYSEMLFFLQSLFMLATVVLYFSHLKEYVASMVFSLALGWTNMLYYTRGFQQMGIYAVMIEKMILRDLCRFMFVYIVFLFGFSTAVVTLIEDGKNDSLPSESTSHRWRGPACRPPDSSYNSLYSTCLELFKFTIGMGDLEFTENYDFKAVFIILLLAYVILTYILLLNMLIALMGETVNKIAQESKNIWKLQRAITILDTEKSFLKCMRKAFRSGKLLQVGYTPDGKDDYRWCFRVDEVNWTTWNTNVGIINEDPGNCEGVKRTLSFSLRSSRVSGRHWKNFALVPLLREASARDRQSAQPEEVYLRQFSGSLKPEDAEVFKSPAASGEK
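TRPV1-expressing cells were cultured overnight at 35.5C and loaded with Fluo-8 calcium dye for 40 to 90 min at room temperature. After a 10 s baseline, compound was added and calcium influx was read kinetically for 3 min (ex 480/em 520 nm).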
D2 potentiator: Beta-Arrestin HTS for Positive Allosteric Modulators of the Human D2 Dopamine Receptor: Potentiators. hit rate 0.23% among 360,000. AID 624464, 2012. potentiation, % (concentration not given with the values). D(2) dopamine receptor (Homo sapiens), P14416. DiscoveRx D2 beta-arrestin cells, luminescence, 90 min; 100% = 57 uM dopamine signal; active = potentiation of 50% or more; inconclusive = 30% to 50%; inactive = 30% or less;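 also: compound concentration not given in the record; tested on top of an EC20 dose of dopamine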
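D2 cells co-treated with compound plus 50 nM dopamine (EC20) for 90 min at 37 deg C to detect potentiation. Beta-arrestin recruitment was read as enzyme-fragment luminescence after 1 h at ambient temperature. Full response was set by 57 uM dopamine.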
* = called active by the depositor; ? = inconclusive; · = not tested or not shown.

SMILES	TRPML1 inh	TRPML1 agonist	Six1-Eya2 inh	CtBP-E1A inh	TRPV1 potentiator	D2 potentiator
CCc1nnc2sc(-c3ccc(NC(=O)CSc4ccc(Cl)cc4)cc3)nn12	6	-0.4	-20	-6	·	-1
CCOC(=O)N1CCC(C(=O)Nc2ccc(OCC)cc2)CC1	-5	-0.6	-1	-2	2	-3
Cc1ccc(S(=O)(=O)N(C)c2cc(S(=O)(=O)Nc3ccncc3)c(C)cc2C)cc1	1	0.6	5	-5	-12	0
CCN(CC)C(=O)C1=C(C)N(Cc2ccccc2)C(=O)C(CC(=O)NC2CCCCC2)C1 (stereo not given)	-3	-0.7	10	4	·	2
CCc1nc(SCc2cccnc2)[nH]c(=O)c1C	4	1.5	5	-2	0	10
CC(=O)N1CCOc2ccc(S(=O)(=O)N3CCC(C(=O)Nc4ccccc4F)CC3)cc21	3	-0.6	-2	5	-4	1
COc1ccc([C@@H]2[C@@H]3C(=O)N(C(C)(C)C)C(=O)[C@@H]3[C@]3(Cc4ccc(Cl)cc4)C(=O)N(c4cccc(C)c4)C(=O)N23)cc1	11	2.0	3	-3	-3	-9
O=C(CCC1CCCCC1)Nc1ccccc1O	-18	0.4	0	-2	8	2
COc1ccc(NC(=O)CN(C)C(=O)CNC(=O)c2cccs2)cc1	31	0.5	5	-17	6	1
COc1ccc(Br)cc1CN1CCN(C(=O)c2ccc(F)cc2)CC1	0	-0.5	0	-10	-15	-33
CC(=O)OC(c1nc2ccccc2c(=O)n1C1CC2(OC1=O)c1ccccc1N1C(=O)C(C)(C)N(O)C12)C(C)C (stereo not given)	·	·	-7	4	-13	-10
O=C1Nc2ncccc2OC1CCCl (stereo not given)	11	0.6	3	-23	0	-12
Cc1c(CNCCc2ccccc2)c(C(=O)O)c(C)n1-c1ccccc1	18	1.1	-12	-16	11	-7
COc1ccc(NC(=O)c2cc3nc(-c4ccccc4)cc(C)n3n2)cc1OC	-1	0.2	?	?	-1	6
N#C/C(=C\c1ccc(Cl)cc1)c1nc2ncccc2[nH]1	0	-0.1	-17	?	15	1
CCn1cc(Cl)c(C(=O)Nc2cc(C(=O)OC)cc(C(=O)OC)c2)n1	-5	-0.4	5	-5	3	2
N#Cc1ccc(OCC(=O)OCC(=O)Nc2cc(C(F)(F)F)ccc2N2CCOCC2)cc1	-3	0.5	10	-6	-14	3
Clc1ccc2ccc3cccnc3c2n1	6	1.1	-9	·	?	-2
CCC(C)OC(=O)c1cc(C)nc2c(Br)cc(Br)cc12 (stereo not given)	-14	0.3	3	2	-2	3
CCOc1ccc(-c2nnc(SCC(=O)O)n2Cc2ccccc2)cc1	-8	-0.6	2	6	28	3
COC(=O)CN(C#N)c1nc(NC(C)C)nc(NC(C)C)n1	6	0.2	-2	·	16	-4
CCOC(=O)c1sc(N)c(C(=O)Nc2ccccc2OC)c1C	-10	1.5	-6	-9	0	-43
C=CCC[C@H](Cc1ccc(F)cc1)C(=O)OC[C@@H](Cc1c[nH]c2ccccc12)NC(=O)[C@@H](CC=C)CC(=O)N(CCO)Cc1ccccc1	9	0.0	-4	·	·	0
Cc1ccc(N=Nc2c(N)nn(-c3ccccc3)c2N)cc1	4	2.2	?	?	3	-38
COc1ccccc1N1CCN(C(c2cccs2)C(C)NC(=O)c2cccs2)CC1 (stereo not given)	-11	-0.1	-7	12	1	-23
Clc1ccc(/C=C\c2nccc3c2[nH]c2ccccc23)cc1	-11	-0.2	45	0	-3	-29
COc1cc(OC)cc(-c2c(-c3cccs3)c3cc(-c4ccc(CN5CCOCC5)cc4)ccc3n2C)c1	9	-0.6	-7	-11	·	-22
COc1ccc(Oc2nnnn2-c2ccccc2)cc1	15	1.1	5	11	-8	-1
Cc1ccc(CNC(=O)C2CSC3(C)CCC(=O)N23)cc1 (stereo not given)	3	-0.5	-4	4	·	-5
Cc1ccc2c(c1)S/C(=C/c1ccc[n+](CCO)c1)N2C	5	0.5	-3	8	-3	15
CC(C)CCn1nc(C(=O)Nc2nc3c(s2)CCCC3)c2ccccc2c1=O	?	-0.1	-1	-5	0	-1
c1coc(C2Nc3ccccc3-c3nc4ccccc4n32)c1 (stereo not given)	21	0.1	-25	-24	-2	-5
COC(=O)c1ccc(C(=O)OC)c(NC(=O)Cc2cccs2)c1	-18	0.3	-21	18	·	7
O=c1oc2cc(O)ccc2c2ccccc12	25	-0.1	-11	-4	5	-6
C/C(=N\NC(=O)c1ccc(-c2ccccc2)cc1)C1C(=O)c2ccccc2C1=O	19	1.0	?	-4	0	1
Cc1ccccc1OCC(=O)O/N=C(\N)c1ccncc1	13	-0.5	5	14	-5	-8
COc1ccc(C(=O)N(CC2CCCO2)C(C(=O)NC2CCCC2)c2ccc(Cl)cc2)cc1OC (stereo not given)	-8	-0.4	0	0	-11	-12
CCCn1c(Cc2ccccc2)nnc1SC(C)C(=O)NC1CC1 (stereo not given)	-9	-0.2	4	3	-1	-3
CCc1ccc(C(=O)NCC2COc3ccccc3O2)o1 (stereo not given)	11	-0.1	0	2	-26	-5
O=C(COC(=O)c1ccc2ccccc2n1)Nc1ccccc1F	-14	-0.3	2	0	·	-5

One compound at a time (already shown):
Profile of `O=C(COC(=O)c1ccc2ccccc2n1)Nc1ccccc1F` → TRPML1 inh: -14; TRPML1 agonist: -0.3; Six1-Eya2 inh: 2; CtBP-E1A inh: 0; TRPV1 potentiator: ·; D2 potentiator: -5
Profile of `CC(C)CCn1nc(C(=O)Nc2nc3c(s2)CCCC3)c2ccccc2c1=O` → TRPML1 inh: ?; TRPML1 agonist: -0.1; Six1-Eya2 inh: -1; CtBP-E1A inh: -5; TRPV1 potentiator: 0; D2 potentiator: -1

The results go on:
SMILES	TRPML1 inh	TRPML1 agonist	Six1-Eya2 inh	CtBP-E1A inh	TRPV1 potentiator	D2 potentiator
Cc1ccc(S(=O)(=O)N2CCCC(C(=O)N3CCCc4ccccc43)C2)cc1 (stereo not given)	50	2.2	3	-14	-7	-22
CCC(C)(C(=O)NC1CCCCC1)N(Cc1ccco1)C(=O)c1ccc2c(c1)OCO2 (stereo not given)	16	-0.5	-2	6	-6	-6
Cc1cccc(NC(=O)c2ccccc2-c2ccccc2)c1	14	2.5	3	12	5	-1
Cc1noc(C)c1COC(=O)COc1cccc2c1OC(C)(C)C2	-15	-0.3	9	7	1	0
NS(=O)(=O)c1ccc(NN=C2CCCCC2)c([N+](=O)[O-])c1	7	2.8	-9	-1	3	-11
C=CC(=O)N=c1sc2ccccc2n1-c1ccccc1	30	-0.8	1	2	-8	-10
Cc1nc(C(F)(F)F)ccc1C(=O)N1CCC1(C)C(=O)NS(=O)(=O)c1ccc2c(c1)CCO2 (stereo not given)	·	-0.8	0	2	·	-4
Cc1ccc(CSc2nnc3ccc(-c4ccncc4)nn23)cc1	-9	0.4	-3	-18	2	-9
O=C(COC(=O)c1cc[n+]([O-])cc1)Nc1ccccc1Cl	7	1.1	5	4	-11	-36
COc1cc(C)c(NC(=O)C(=S)NCCc2ccccc2)cc1C	-18	1.7	-6	3	?	1
Cc1ccc(C(C)C)cc1OCC(=O)Nc1ccc(-n2cnnn2)cc1	-4	0.2	3	-2	0	-20
O=C(c1ccccc1[N+](=O)[O-])N1CC2C3C=CC(C3)C2C1 (stereo not given)	10	-0.6	4	8	3	-6
O=C(C1CC1)n1cc(C(=S)N2CCOCC2)c2ccccc21	10	-0.3	-5	-6	28	-11
Cc1cc(SCC(=O)Nc2ccccc2C)nc(C)n1	5	0.3	0	-6	-2	-6
CCCCNC(=O)C1(C)CCCCN1C(=O)c1cc2ccccc2s1 (stereo not given)	·	-0.9	1	6	·	-6
O=C(O)C1CSC2(c3ccc(F)cc3)CCC(=O)N12 (stereo not given)	30	0.6	6	0	6	1
COc1cccc(CN(C)CC(=O)NCc2ccc(F)cc2)c1OC	-1	1.2	-8	5	-8	-5
CCC(=O)Nc1cccc(NC(=O)c2ccc3c(c2)OCCO3)c1	-7	-0.4	2	8	?	-14
CCOC(=O)c1ccccc1NC(=O)COC(=O)CCC(=O)c1ccccc1	-4	2.3	25	-1	-7	-5
CCOc1ccc(NC(=O)CCC(=O)NNS(=O)(=O)c2ccccc2[N+](=O)[O-])cc1	-20	-0.1	6	·	4	-1
COc1cccc(CN(C)Cc2nc(Cc3ccccc3Cl)no2)c1	6	2.8	4	12	2	-3
Cc1ccc(C)c(Cn2nnc3c(=O)[nH]c(C(=O)NCC4CCCO4)nc32)c1 (stereo not given)	-8	0.5	-3	5	-1	-6
O=C(Cn1cc2c(n1)CCCCC2)NC1CCN(Cc2ccccc2)CC1	7	3.7	3	-2	7	-7
CCCN(CCC)CCNC(=O)C1CCN(S(=O)(=O)c2cccc3nsnc23)CC1	17	0.2	4	-9	2	-14
CCOc1ccc(C(C)(C)C)cc1S(=O)(=O)N1CCOCC1	-8	-0.3	15	10	-31	4
COc1ccc(OCCCn2c(=O)oc3ccccc32)cc1	10	2.5	0	3	1	-1
Cc1nn2c3ccccc3n(C)c2nc1=O	-7	-0.5	-21	-16	-24	-6
O=C(Nc1ccc(F)cc1F)NC1CCCCCCC1	8	0.8	9	7	-4	-23
COc1ccccc1/C=N/NC(=O)Cn1cnc([N+](=O)[O-])n1	-3	1.7	-1	5	-6	-3
CCOC(=O)Cc1nnc(NC(=O)c2ccco2)s1	-12	0.4	-4	-20	-3	-9
NC(=O)NC(=O)COC(=O)[C@H](Cc1ccccc1)NC(=O)c1cccs1	10	-1.0	-12	4	17	-19
O=C(NC1CCCC1)C(c1cccnc1)N(C(=O)c1csnn1)C1CCCC1 (stereo not given)	-4	-0.1	4	-5	-10	-5
O=C(Cn1c(=O)oc2cc(S(=O)(=O)N3CCCC3)ccc21)N1CCN(c2ccccc2)CC1	-5	-0.8	-4	0	0	-5
COc1ccccc1NC(=O)N(CCN(C)C)Cc1cc2cc(C)ccc2[nH]c1=O	15	0.2	1	0	-2	-16
Cc1cc(C2(c3ccc(O)c(C)c3)C(=O)N(C)c3ccc(Br)cc32)ccc1O	-1	2.2	4	·	·	1
Clc1nssc1=Nc1ccccc1	0	0.1	2	-8	23	2
CCN=C1NN=C(c2cc(C)n(CCc3ccccc3)c2C)CS1	21	0.0	6	-9	3	-9
Cc1cccc(NC(=O)c2ccc(S(=O)(=O)N(C)C)cc2)c1	5	-1.5	8	-9	-3	-4
CCOCCCNC(=O)c1ccc(Cn2c(=O)[nH]c3ccsc3c2=O)cc1	25	-0.7	6	7	7	-5
